From PubChem
RGS16-Gao HTS: regulators of human RGS16-Galphao interaction. O15492+P09471. bead-based flow cytometry RGS16-Galphao binding, fluorescence; actives lie on both sides. binding response (% of control), % at 10 µM. 0.38% of 220,000 active. AID 1441;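 active = below 25% or above 175%, edge rows of some plates excepted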;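 also: Galphao activated by GDP with aluminum fluoride before binding; 100% = wells without compound and 0% = beads without RGS; some results beyond the cut were filed as inactive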
Target sequence (O15492 whole entry, looked up): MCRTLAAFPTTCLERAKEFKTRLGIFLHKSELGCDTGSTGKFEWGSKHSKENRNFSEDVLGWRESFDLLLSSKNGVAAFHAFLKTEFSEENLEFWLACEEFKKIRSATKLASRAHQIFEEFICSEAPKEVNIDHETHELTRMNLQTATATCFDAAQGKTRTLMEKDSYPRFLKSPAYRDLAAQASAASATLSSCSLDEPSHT
Target sequence (P09471 whole entry, looked up): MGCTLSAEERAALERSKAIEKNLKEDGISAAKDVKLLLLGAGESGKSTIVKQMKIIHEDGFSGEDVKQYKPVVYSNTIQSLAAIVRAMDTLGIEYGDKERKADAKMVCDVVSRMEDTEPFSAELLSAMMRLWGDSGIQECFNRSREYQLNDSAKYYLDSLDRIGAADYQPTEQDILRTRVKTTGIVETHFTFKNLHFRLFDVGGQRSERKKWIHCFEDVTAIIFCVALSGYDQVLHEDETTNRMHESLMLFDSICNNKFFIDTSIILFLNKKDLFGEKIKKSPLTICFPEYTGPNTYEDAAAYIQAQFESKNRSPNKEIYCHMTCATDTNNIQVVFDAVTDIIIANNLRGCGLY
INS promoter inh: TRM-6 insulin promoter activity inhibition. TRM-6 cells (human fetal islet line), insulin promoter-eGFP reporter, imaging; reporter expression induced with tamoxifen. inhibition, % at 2 µM. 0.9% of 130,000 active;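 active = inhibition above the mean plus 3 SD, with well images judged a real hit on visual review, cut at about 60% in these data, passing the limit was not always enough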
HSV augment: HSV replication enhancement | AID 1956 | HSV replication augmentation in cells, fold increase | maximum fold increase | 0.005% of 220,000 active;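 active = peak rise of 1.5-fold or more in the series; tested in PC3 cells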;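 also: first round at 10 µM; read as green reporter fluorescence; hits show the peak of a series up to 25 µM; 1 = signal of infected wells without compound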
PKD1 kinase inh: PKD1 (human) kinase inhibition | Q15139 | PKD1 kinase fluorescence polarization assay | inhibition, %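 (about 10 µM by stock and volumes)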 | 0.056% of 200,000 active;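 active = inhibition of 50% or more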;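 also: controls were vehicle for no effect and a reference inhibitor for full effect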
GALR2 ag: agonists of human galanin receptor 2 (GALR2) | O43603 | GALR2-expressing cells, agonist activation read-out | activation, %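 (tested at 5 µM)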 | 0.48% of 140,000 active;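 active = above mean plus 3 SD of all compounds, about 5% in these data, not always enough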;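 also: 0% = vehicle buffer wells and 100% = reference agonist at full effect; tested in CHO reporter cells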
Target sequence (O43603 whole entry, looked up): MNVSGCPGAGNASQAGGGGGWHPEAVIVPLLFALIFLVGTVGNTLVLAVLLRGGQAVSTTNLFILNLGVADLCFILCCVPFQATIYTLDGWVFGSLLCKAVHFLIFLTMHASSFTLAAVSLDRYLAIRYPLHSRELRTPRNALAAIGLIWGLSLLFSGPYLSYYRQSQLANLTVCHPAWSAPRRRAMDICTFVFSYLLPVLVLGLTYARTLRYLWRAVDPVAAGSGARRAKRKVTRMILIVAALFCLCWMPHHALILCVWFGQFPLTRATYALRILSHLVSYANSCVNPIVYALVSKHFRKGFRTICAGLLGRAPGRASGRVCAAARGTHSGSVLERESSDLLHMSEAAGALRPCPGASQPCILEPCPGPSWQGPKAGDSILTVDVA
INS promoter inh cell count: recorded beside INS promoter inh, whose call it bears; normalized cell count, %; measured here: cell count, toxicity; reference of the scale not given here;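 cells exposed to compound for 48 h; stained nuclei by imaging scaled within each plate; lower means fewer cells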
HSV augment primary fold: recorded beside HSV augment, whose call it bears; fold increase; compound at 10 µM; measured here: primary screen fold increase 10 uM; tested in PC3 cells;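 GFP signal in the first replicate; 1 = infected wells without compound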
* = called active by the depositor.

Results for Cc1ccc(C(=O)OCC(=O)Nc2ccccc2)cc1NC(=O)c1ccco1 ?
RGS16-Gao HTS: 102; INS promoter inh: 3; HSV augment: inactive; PKD1 kinase inh: -8; GALR2 ag: -1.9; INS promoter inh cell count: 120; HSV augment primary fold: 0.96

What do the screens show for `CCc1nnc(NS(=O)(=O)c2ccc(NS(=O)(=O)c3ccc(NC(C)=O)cc3)cc2)s1`?
RGS16-Gao HTS: 94; HSV augment: inactive; PKD1 kinase inh: -3; GALR2 ag: -1.7; HSV augment primary fold: 0.94

Results for CCN(CC)C(=O)c1[nH]cnc1C(=O)N[C@@H](C)C(=O)OCc1ccccc1 ?
RGS16-Gao HTS: 102; HSV augment: inactive; PKD1 kinase inh: -14; HSV augment primary fold: 0.92

What do the screens show for `Cc1ccccc1-c1nn(-c2ccc(F)cc2F)cc1CNCCCN(C)C`?
RGS16-Gao HTS: 104; HSV augment: inactive; PKD1 kinase inh: 4; HSV augment primary fold: 0.89

How did CCN(CC)c1ccc(N=Cc2cc(Br)ccc2O)cc1 do in these assays?
RGS16-Gao HTS: 93; INS promoter inh: -100; PKD1 kinase inh: -2; INS promoter inh cell count: 215

What do the screens show for `O=C(CN1C(=O)NC2(CCCC2)C1=O)Nc1ccc(F)cc1`?
RGS16-Gao HTS: 103; INS promoter inh: -42; HSV augment: inactive; PKD1 kinase inh: 5; GALR2 ag: -2.6; INS promoter inh cell count: 90; HSV augment primary fold: 0.8

What do the screens show for `CCOC(=O)c1c(C)[nH]c(N=Nc2ccccc2)c1C`?
RGS16-Gao HTS: 110; INS promoter inh: 11; HSV augment: inactive; PKD1 kinase inh: -11; GALR2 ag: -2.8; INS promoter inh cell count: 119; HSV augment primary fold: 0.84

How did CCn1c(=O)cc(OCC(=O)Nc2nc(C)cs2)c2ccccc21 do in these assays?
RGS16-Gao HTS: 102; HSV augment: inactive; PKD1 kinase inh: -6; GALR2 ag: -1.8; HSV augment primary fold: 0.99

How did Cc1ccc(CSCC(=O)N2CCN(c3ccccc3)CC2)cc1 do in these assays?
RGS16-Gao HTS: 107; INS promoter inh: -22; HSV augment: inactive; PKD1 kinase inh: 2; GALR2 ag: -2.1; INS promoter inh cell count: 103; HSV augment primary fold: 1.1

Results for Cc1ccc(C)c(NC(=O)CC(NCCCN2CCOCC2)C(=O)O)c1 (stereo not drawn) ?
INS promoter inh: -70; PKD1 kinase inh: 5; GALR2 ag: -0.9; INS promoter inh cell count: 61

Results for COCCCn1c(SCC(=O)NC2CCCC2)nnc1-c1ccco1 ?
RGS16-Gao HTS: 100; INS promoter inh: -17; HSV augment: inactive; PKD1 kinase inh: 4; GALR2 ag: -2.8; INS promoter inh cell count: 79; HSV augment primary fold: 0.98

How did NC(=O)C(c1ccccc1)c1ncc(C(F)(F)F)cc1Cl (stereo not drawn) do in these assays?
RGS16-Gao HTS: 101; INS promoter inh: -10; HSV augment: inactive; PKD1 kinase inh: 4; GALR2 ag: -2.9; INS promoter inh cell count: 103; HSV augment primary fold: 0.86

Results for O=C(c1cccc(-n2cnnn2)c1)N1CC=C(c2ccccc2)CC1 ?
RGS16-Gao HTS: 101; INS promoter inh: 57; HSV augment: inactive; PKD1 kinase inh: -3; GALR2 ag: -0.6; INS promoter inh cell count: 115; HSV augment primary fold: 0.87

Results for COC(=O)c1ccccc1Nc1ccccc1 ?
RGS16-Gao HTS: 108; INS promoter inh: 10; HSV augment: inactive; PKD1 kinase inh: -8; GALR2 ag: -0.2; INS promoter inh cell count: 97; HSV augment primary fold: 1

How did Cc1nc2ccccc2cc1C(=O)NCc1ccc(F)cc1 do in these assays?
RGS16-Gao HTS: 101; HSV augment: inactive; PKD1 kinase inh: -1; HSV augment primary fold: 1.1

What do the screens show for `CCOC(=O)N1CCN(C(=O)c2ccc(CSc3ccc(Cl)cc3)cc2)CC1`?
RGS16-Gao HTS: 102; INS promoter inh: 0; HSV augment: inactive; PKD1 kinase inh: 3; INS promoter inh cell count: 59; HSV augment primary fold: 1.1

How did O=C1N(C2CCCC2)C[C@@H]2C[C@@H](c3cccn3-c3ccccn3)N3CCC[C@@]123 do in these assays?
RGS16-Gao HTS: 97; HSV augment: inactive; PKD1 kinase inh: 1; HSV augment primary fold: 1.1

How did Cn1c(=O)[nH]c2cc3ccccc3cc21 do in these assays?
RGS16-Gao HTS: 98; INS promoter inh: 5; HSV augment: inactive; PKD1 kinase inh: -2; GALR2 ag: -2.1; INS promoter inh cell count: 66; HSV augment primary fold: 0.77

How did CN(C)CCOCCSc1ccc(Cl)cc1 do in these assays?
RGS16-Gao HTS: 152; INS promoter inh: -67; HSV augment: inactive; PKD1 kinase inh: 5; GALR2 ag: -1.9; INS promoter inh cell count: 103; HSV augment primary fold: 1.1

Results for Cc1ccc(-n2c(Cn3ncc4ccccc4c3=O)n[nH]c2=S)cc1 ?
RGS16-Gao HTS: 97; INS promoter inh: 7; HSV augment: inactive; PKD1 kinase inh: -7; INS promoter inh cell count: 89; HSV augment primary fold: 1

What do the screens show for `CCN(CC)C(=O)C1(P(=O)(c2ccccc2)c2ccccc2)CCC1`?
RGS16-Gao HTS: 105; HSV augment: inactive; HSV augment primary fold: 0.99

Results for O=C(NC(=S)NC(=O)c1ccccc1F)c1ccccc1F ?
RGS16-Gao HTS: 103; INS promoter inh: 8; HSV augment: inactive; PKD1 kinase inh: -8; GALR2 ag: -1.6; INS promoter inh cell count: 51; HSV augment primary fold: 0.98

Results for CC1(C)NC(=O)N(CC(O)CN2C(=O)CCC2=O)C1=O (stereo not drawn) ?
RGS16-Gao HTS: 102; INS promoter inh: 38; HSV augment: inactive; PKD1 kinase inh: -10; GALR2 ag: 0.1; INS promoter inh cell count: 83; HSV augment primary fold: 0.91

What do the screens show for `CCOC(=O)NC(NCc1ccccc1)(C(F)(F)F)C(F)(F)F`?
RGS16-Gao HTS: 107; INS promoter inh: 18; HSV augment: inactive; PKD1 kinase inh: 5; GALR2 ag: -0.6; INS promoter inh cell count: 124; HSV augment primary fold: 1

What do the screens show for `CNCCOc1ccc(Cl)c(Cl)c1`?
RGS16-Gao HTS: 99; HSV augment: inactive; PKD1 kinase inh: -6; HSV augment primary fold: 0.87

How did O=C(CNC(=O)c1ccccc1F)OCC(=O)N1CCCc2ccccc21 do in these assays?
RGS16-Gao HTS: 106; HSV augment: inactive; PKD1 kinase inh: -6; GALR2 ag: -1.0; HSV augment primary fold: 0.96

Results for O=C(NC(=O)c1ccc(Cl)cc1)OC1CCCCC1 ?
RGS16-Gao HTS: 105; HSV augment: inactive; PKD1 kinase inh: -2; GALR2 ag: -0.9; HSV augment primary fold: 0.89

What do the screens show for `O=C(Cc1nc2ccccc2[nH]1)N/N=C/c1ccccc1`?
RGS16-Gao HTS: 101; HSV augment: inactive; PKD1 kinase inh: 0; GALR2 ag: -1.5; HSV augment primary fold: 1.1

Results for CC[C@@H](C)[C@@H](C(=O)N1CCN(C(=O)OC(C)(C)C)CC1)n1cc(CCCCNC(=O)OC(C)(C)C)nn1 ?
RGS16-Gao HTS: 108; HSV augment: inactive; PKD1 kinase inh: 7; HSV augment primary fold: 0.7

What do the screens show for `N/C(=N\O)c1ccc(N2CCN(c3ncccc3C(F)(F)F)CC2)nc1`?
RGS16-Gao HTS: 95; HSV augment: inactive; HSV augment primary fold: 0.75

Nothing new here: an excerpt of the list.
What do the screens show for `CCN(CC)C(=O)C1(P(=O)(c2ccccc2)c2ccccc2)CCC1`?
RGS16-Gao HTS: 105; HSV augment: inactive; HSV augment primary fold: 0.99

Results for O=C(NC(=S)NC(=O)c1ccccc1F)c1ccccc1F ?
RGS16-Gao HTS: 103; INS promoter inh: 8; HSV augment: inactive; PKD1 kinase inh: -8; GALR2 ag: -1.6; INS promoter inh cell count: 51; HSV augment primary fold: 0.98

Results for CC1(C)NC(=O)N(CC(O)CN2C(=O)CCC2=O)C1=O (stereo not drawn) ?
RGS16-Gao HTS: 102; INS promoter inh: 38; HSV augment: inactive; PKD1 kinase inh: -10; GALR2 ag: 0.1; INS promoter inh cell count: 83; HSV augment primary fold: 0.91

What do the screens show for `CCOC(=O)NC(NCc1ccccc1)(C(F)(F)F)C(F)(F)F`?
RGS16-Gao HTS: 107; INS promoter inh: 18; HSV augment: inactive; PKD1 kinase inh: 5; GALR2 ag: -0.6; INS promoter inh cell count: 124; HSV augment primary fold: 1

Additional entries follow.
What do the screens show for `COc1ccc(C(=O)NCCc2ccc(S(N)(=O)=O)cc2)cc1OC`?
RGS16-Gao HTS: 103; HSV augment: inactive; PKD1 kinase inh: -8; GALR2 ag: -1.2; HSV augment primary fold: 0.72

How did CC(=O)Nc1ccc2nc(CN3CCN(CC=C(C)C)C(CCO)C3)ccc2c1 (stereo not drawn) do in these assays?
RGS16-Gao HTS: 97; HSV augment: inactive; PKD1 kinase inh: 5; HSV augment primary fold: 1.1

What do the screens show for `CC1=NC(C)(C)Cc2c(C)cccc21`?
RGS16-Gao HTS: 102; HSV augment: inactive; PKD1 kinase inh: -6; HSV augment primary fold: 1

Results for CCCN1C(=O)/C(=C/c2ccc3c(c2)OCO3)NC1=S ?
RGS16-Gao HTS: 99; HSV augment: inactive; PKD1 kinase inh: -7; HSV augment primary fold: 1

What do the screens show for `COc1ccc(/C=N/NS(=O)(=O)c2ccccc2)cc1OS(=O)(=O)c1ccccc1`?
RGS16-Gao HTS: 98; INS promoter inh: 47; HSV augment: inactive; PKD1 kinase inh: 0; GALR2 ag: -1.6; INS promoter inh cell count: 92; HSV augment primary fold: 0.94

How did COc1ccc(NC(=O)C2CCN(S(C)(=O)=O)CC2)cc1 do in these assays?
RGS16-Gao HTS: 99; INS promoter inh: -21; HSV augment: inactive; PKD1 kinase inh: -1; GALR2 ag: -1.7; INS promoter inh cell count: 78; HSV augment primary fold: 0.94

How did COc1ccc(C2Nc3ccccc3C(=O)N2NC(=O)c2ccccc2)cc1OC (stereo not drawn) do in these assays?
RGS16-Gao HTS: 98; INS promoter inh: -25; HSV augment: inactive; PKD1 kinase inh: -1; INS promoter inh cell count: 147; HSV augment primary fold: 0.91

Results for O=C(/C=C/c1c(Cl)cccc1Cl)Nc1ccncc1 ?
RGS16-Gao HTS: 92; INS promoter inh: -5; HSV augment: inactive; PKD1 kinase inh: 3; GALR2 ag: -2.4; INS promoter inh cell count: 113; HSV augment primary fold: 0.9

How did Clc1ccc(COc2ccccc2CNCc2cccnc2)cc1 do in these assays?
RGS16-Gao HTS: 102; INS promoter inh: -45; HSV augment: inactive; PKD1 kinase inh: 0; GALR2 ag: -1.2; INS promoter inh cell count: 73; HSV augment primary fold: 0.88

Results for Cc1ccc(-n2nnnc2-c2cccnc2)cc1 ?
RGS16-Gao HTS: 85; HSV augment: inactive; HSV augment primary fold: 1.1

What do the screens show for `Cc1sc2nc(CSc3nnc(Cc4cccs4)n3C3CCCCC3)[nH]c(=O)c2c1C`?
RGS16-Gao HTS: 98; INS promoter inh: 31; HSV augment: inactive; PKD1 kinase inh: -3; GALR2 ag: -1.0; INS promoter inh cell count: 88; HSV augment primary fold: 1

What do the screens show for `COc1ccc(/C=C2\N=C(C)OC2=O)cc1[N+](=O)[O-]`?
RGS16-Gao HTS: 102; HSV augment: inactive; HSV augment primary fold: 1.1

Results for C=CCn1c(SCC(=O)N2CCOCC2)nc(O)c(Cc2ccccc2)c1=O ?
RGS16-Gao HTS: 100; HSV augment: inactive; PKD1 kinase inh: 7; GALR2 ag: -1.3; HSV augment primary fold: 0.88

What do the screens show for `Cc1ccccc1S(=O)(=O)Cc1ccc(C(=O)NCc2cccs2)o1`?
RGS16-Gao HTS: 111; INS promoter inh: 8; HSV augment: inactive; PKD1 kinase inh: -5; GALR2 ag: -0.2; INS promoter inh cell count: 129; HSV augment primary fold: 0.96

Results for Cc1ccc(OC(C)C(=O)N2CCCc3ccccc32)cc1 (stereo not drawn) ?
RGS16-Gao HTS: 100; INS promoter inh: -27; HSV augment: inactive; PKD1 kinase inh: 2; GALR2 ag: -1.7; INS promoter inh cell count: 90; HSV augment primary fold: 0.91

Results for Cc1ccc(SCc2ccc(C(=O)N3CCCCC3)cc2)cc1 ?
RGS16-Gao HTS: 102; INS promoter inh: 36; HSV augment: inactive; PKD1 kinase inh: -3; INS promoter inh cell count: 121; HSV augment primary fold: 1

Results for CC(=O)Nc1ccc(-c2cc(NC(C)=O)n(-c3ccccc3)n2)cc1 ?
RGS16-Gao HTS: 73; HSV augment: inactive; PKD1 kinase inh: -4; GALR2 ag: -0.8; HSV augment primary fold: 0.94

How did CC(=O)c1cccc(NC(=O)C2CCN(S(=O)(=O)c3ccccc3)CC2)c1 do in these assays?
RGS16-Gao HTS: 93; INS promoter inh: -7; HSV augment: inactive; PKD1 kinase inh: 3; GALR2 ag: -1.7; INS promoter inh cell count: 109; HSV augment primary fold: 0.98

Random draw from the library; 1.3% or so of the library scored in one or more.
